# Vaccinia mCherry: vaccinia inhibition (mCherry reporter). Potency, µM (titrated, usually from 36.5 µM), for inactives: at the top dose activity change, negative = inhibition, hits mostly inhibitors. Vaccinia virus mCherry reporter infection, fluorescence; about a quarter of the inactives have no number. hit rate 0.63% among 310,000; active = well fitted inhibition curve with a large enough effect; inconclusive = small, poorly fitted or top-dose-only effect; inactive = no such curve, though single readings can be large or run the other way; tested in A549 cells; also: nearly all actives have a fitted effect of over 35% in size; inactives centre near -10
# VACV Venus inh: vaccinia inhibition (Venus reporter); Vaccinia virus Venus reporter expression, fluorescence; Potency, µM (titrated, usually from 36.5 µM), for inactives: top-dose activity change, negative = inhibition, most hits filed as inhibitors; hit rate 0.46% among 330,000; AID 720580; active means well fitted inhibition curve with a large enough effect; inconclusive means small, poorly fitted or top-dose-only effect; inactive means no such curve, though single readings can be large or run the other way; tested in A549 cells; also: nearly all actives have a fitted effect of over 30% in size; inactives centre near -10
# The depositor's hits bear a star; i = inactive; ? = inconclusive; / = not tested or not shown; & = joins results of further samples; [ ] = dose if it differs, or a comment. % is scaled to controls: 0 for no effect and ±100 for the full control effect; potency is read from the fitted curve at half-maximal effect.
SMILES,Vaccinia mCherry,VACV Venus inh
COc1ccccc1NC(=O)CSc1nnc(CNC(=O)c2cccs2)o1,-22%,-14%
Cc1cc(C)c2oc(C(=O)N3CCN(C)CC3)cc(=O)c2c1,-4%,-16%
CC[n+]1cc(-c2ccccc2)nc(N2CCOCC2)n1,i,-2%
NC(=O)[C@H]1CC2(CC(c3cccc(NC(=O)c4ccccc4)c3)=NO2)CN1C(=O)[C@H]1CCC(=O)N1 (some centres not stated),-5%,-13%
CCOC(=O)CC1=CC(C)(CC(=O)OCC)C(C#N)(C#N)C(N)=C1C#N (configuration not stated),-17%,-6%
O=C(O)c1cccc(NC(=O)c2ccc(CN3C(=O)c4ccccc4C3=O)cc2)c1,-1%,-5%
CC(C)(C)C(=O)Cn1c(=N)n(Cc2ccccc2)c2ccccc21,8.9µM*,?
COc1cc2oc(=O)cc(CN3CCCC3)c2cc1Cl,45%[activator],9%
CCOc1ccccc1OCCOc1cccc(C(F)(F)F)c1,/,-16%
Nc1cccc2c1C(=O)N(C(=O)/C=C/c1cccc(F)c1)C2=O,?,-7%
O=C(CC1C(=O)NCCN1Cc1ccc(-c2ccccc2)cc1)NC1CCC1 (configuration not stated),-9%,-18%
CCOc1ccc(C(c2c(O)cc(C)n(CCOC)c2=O)N2CCN(c3ccccc3F)CC2)cc1 (configuration not stated),-11%,-9%
N#Cc1c(-c2ccc(Cl)cc2Cl)nc2n(c1=O)CCS2,-12%,5%
Cc1ccccc1-c1nc(C(=O)NCC2CCCO2)cc2c1[nH]c1ccccc12 (configuration not stated),?,-21%
COc1ccc(S(=O)CC(=O)Nc2ccccc2Cl)cc1 (configuration not stated),-5%,-2%
CCOc1ccccc1NC(=O)c1cnc(NS(=O)(=O)c2ccccc2)nc1,-3%,17%
CN(C)c1ccc(-c2cncnc2NCc2ccccc2)cc1,0%,0%
Cn1c(OCc2cccnc2)nc2c1c(=O)n(Cc1ccccc1)c(=O)n2C,/,-6%
O=C(Cn1c(-c2cccs2)cc2cc(F)ccc21)NCCCN1CCN(c2ccc(F)cc2)CC1,-2%,-14%
Cc1cccc(Cn2c(COc3ccc(Cl)cc3)nc3ccccc32)c1,-4%,-6%
Cc1c(C(=O)NCC(C)(C)N2CCOCC2)cnn1-c1ncc2c(n1)-c1ccccc1CCC2,-13%,-7%
CC(Sc1nc2c(c(=O)[nH]1)CCCC2)C(=O)Nc1ccccc1C#N (configuration not stated),i,-5%
C[C@H]1CN([C@@H](C)CO)C(=O)c2cc(Br)cnc2O[C@@H]1CN(C)S(C)(=O)=O,-6%,-17%
Cc1cc(NC(=O)c2ccc(Br)c(S(=O)(=O)N3CCCC3)c2)no1,-22%,-18%
COCCCNCCCCSc1ccc(Cl)cc1,i,-6%
SMILES,Vaccinia mCherry,VACV Venus inh
C=CCN1c2ccccc2[C@]23C[C@@H](C(=O)OC)N(C(=O)NC4CCCC4)C2=NC(C(=O)OC)=C(C(=O)OC)[C@H]13,?,-14%
COc1ccc(NS(=O)(=O)c2ccc(N3CCOCC3)c(NC(=O)c3cccc(F)c3)c2)cc1,?,-23%
CC(C)c1ccc(CCNC(=O)CSC(=S)N2CCCC2)cc1,-11%,-14%
COc1ccc(-n2nc(C(=O)NCC(=O)N3CC(C)CC(C)C3)c3ccccc3c2=O)cc1OC (configuration not stated),-4%,10%
Cc1ccccc1S(=O)(=O)c1c(C)cc(C)n(C(C)C)c1=O,i,-11%
O=c1[nH][nH]cc1C=Nc1cc(Cl)ccc1O,-13%,-16%
CCC(=O)N1N=C(c2ccc(C)o2)CC1c1ccc(Br)cc1 (configuration not stated),-3%,-14%
COc1ccc(N(CC(=O)N2CCN(c3ccc(F)cc3)CC2)S(=O)(=O)c2c(C)n[nH]c2C)cc1,-13%,-10%&-8%
CCC(C(=O)NC1CCCC1)N(Cc1ccccc1Cl)C(=O)c1snc(C(N)=O)c1N (configuration not stated),-1%,-16%
CCCCN(CCCC)S(=O)(=O)c1ccc(SCC(=O)OCC)c([N+](=O)[O-])c1,-15%,-8%
CC(C)(C)OC(=O)C[C@@H]1C/C=C\C[C@H](CC(=O)N(CCO)Cc2ccccc2)C(=O)N2CCC[C@@H]2COC1=O,i,-19%
Cc1ccc(C(c2c(C)n(C)n(-c3ccccc3)c2=O)c2c(C)n(C)n(-c3ccccc3)c2=O)s1,-17%,-11%
O=C(COc1ccc(Cl)cc1Br)Nc1ccncc1,-2%,-24%
CC(C)C(C(=O)C=[N+]=[N-])N1C(=O)c2ccccc2C1=O (configuration not stated),-12%,-5%
CC(=O)c1ccc(-c2c(CCO)sc3ccccc23)cc1,-16%,-12%
CN(C)c1ccc(NC(=O)Nc2ccc3c(c2)c(=O)n(C)n3-c2ccccc2)cc1,i,-6%
Cc1noc(NS(=O)(=O)c2ccc(N3CC(O)=C(c4ccccc4)C3=N)cc2)c1C,i[1.46 µM],-3%
Cc1ccc(NC(=O)C(=O)NCC(c2cccnc2)N2CCN(Cc3ccccc3)CC2)cc1C (configuration not stated),-21%,-17%
CC(C)C(=O)Nc1ccc(/C=C2\C=Cc3ccccc32)cc1,35%[activator],-8%
Cc1ccccc1-c1noc(-c2cccnc2N(C)Cc2ccc(Cl)cc2)n1,-20%,-14%
Cc1cccc(NP(=O)(Oc2ccccc2F)Oc2ccccc2F)c1C,-11%,-13%
Cn1ccsc1=NC(=O)c1ccccc1OC(F)F,i,-2%
O=C(Nc1nc(-c2ccc(F)cc2)cs1)C1CCCO1 (configuration not stated),-7%,-12%
COc1ccc(C2=NOC(C(=O)Nc3cc(Br)ccc3O)C2)cc1OC (configuration not stated),-12%,-19%
CCN(CC(=O)Nc1cc(Cl)ccc1C)c1ncnc2sc(C)c(C)c12,i,-16%

# Filtered by structure, those above with a cyano group.
SMILES,Vaccinia mCherry,VACV Venus inh
CCOC(=O)CC1=CC(C)(CC(=O)OCC)C(C#N)(C#N)C(N)=C1C#N (configuration not stated),-17%,-6%
N#Cc1c(-c2ccc(Cl)cc2Cl)nc2n(c1=O)CCS2,-12%,5%
CC(Sc1nc2c(c(=O)[nH]1)CCCC2)C(=O)Nc1ccccc1C#N (configuration not stated),i,-5%

# (more compounds)
SMILES,Vaccinia mCherry,VACV Venus inh
CN1CCN(C(=O)c2ccc(CS(=O)(=O)c3c(Cl)cccc3Cl)o2)CC1,14%,-8%
Cn1c(SCC(=O)NCc2ccccc2)nc2ccccc21,-7%,-7%
CCOC(=O)c1ccc(NCc2nc3ccccc3[nH]2)cc1,i,0%
Cn1c(CNC(=O)Nc2ccccc2Cl)nnc1SCc1ccccc1,i,-8%
Nc1ccccc1Sc1ccc(C(=O)c2ccccc2C(=O)O)cc1[N+](=O)[O-],-3%[7.34 µM],-9%[7.34 µM]
COc1ccc(NC(=O)C2CCC(=O)N2C(=O)OCc2ccccc2)cc1 (configuration not stated),i,-13%
COc1cc(O)c(C(CCN2CCOCC2)c2ccc3c(c2)OCO3)c(OC)c1 (configuration not stated),-9%,-14%
O=S(=O)(c1cccs1)N1CCN(c2nc(-c3cccs3)nc3ccccc23)CC1,-13%,-12%
Cn1cc(C2CC(c3ccccc3)=NN2C(=O)c2ccccc2)c2ccccc21 (configuration not stated),-3%,-19%
NC(=O)CSc1nc2c(sc3ccccc32)c(=O)n1CCCC(=O)NCC1CCCO1 (configuration not stated),21%,45%[activator]
O=C1C2C3C=CC(CC3)C2C(=O)N1c1cccc(C(F)(F)F)c1 (configuration not stated),i,-10%
Cc1c(OCC(=O)NC(Cc2ccc(Cl)cc2)C(=O)O)ccc2c3c(c(=O)oc12)CCC3 (configuration not stated),-13%,1%
Cc1ccc(C)c(NC(=O)CCc2c(C)n(C)c3cc(-c4ccccc4C)nn3c2=O)c1,-18%,-18%
O=C(Nc1nc2ccccc2n1CCN1CCOCC1)c1ccccc1,-4%,-14%
Cc1ccc2nc3c(cc2c1)CC1(C(=O)N(C)C(=O)N(C)C1=O)C1CCCCN31 (configuration not stated),-21%,-20%
COc1cccc(C=Nc2ccc3c(c2)CCC3)c1O,-23%,-4%
CCCCN1CCCCC1C(=O)Nc1c(C)cccc1C (configuration not stated),-4%&-13%,-9%&-6%
O=C(Cc1c[nH]c2ccccc12)NNCc1ccc(N(CCCl)CCCl)cc1,-11%,-28%
COc1ccc(Cl)cc1NC(=O)Cn1c(=O)n(-c2ccc(C)cc2)c(=O)c2ccc(C(=O)NCc3ccccc3Cl)cc21,-1%,?
O=C(CC(c1cccs1)S(=O)(=O)c1ccccc1)c1ccc(F)cc1 (configuration not stated),-14%,-1%
CC(C)c1nnc(NC(=O)c2nc(S(=O)(=O)Cc3ccccc3)ncc2Cl)s1,?,?
CSC1=N/C(=C\c2ccc(Br)o2)C(=O)S1,/,-11%
Cc1ccc(-c2nnn(CC(=O)N(CC(=O)NCCC(C)C)c3ccc(F)cc3)n2)cc1,-10%[7.34 µM],-2%[7.34 µM]
COC(=O)C(C(=O)OC)[C@@H]1C=C[C@H](C[N+](=O)[O-])N(C(C)=O)C1,i,-7%
CCCCNS(=O)(=O)c1cccc(NC(=O)[C@@H]2O[C@H](CO)[C@H](O)[C@H](O)[C@H]2O)c1,-3%,-8%
SMILES,Vaccinia mCherry,VACV Venus inh
CCCCOC(=O)c1ccccc1N1C(=O)C2C3CCC(C3)C2C1=O (configuration not stated),-5%,-17%
Cc1ccc(NC(=O)CSc2nc3[nH]ncc3c(=O)[nH]2)c(C)c1,i,-6%
Cc1cc(NCCCN(C)C)n2c(nc3ccccc32)c1C#N,6%,10%
CCOc1cc(C=O)ccc1OCCn1c([N+](=O)[O-])cnc1C,0%,-2%
COC(CCN(C)C)(c1ccccc1)c1ccccc1,i,-13%
O=C(O)c1ccc(C=NN=Cc2ccco2)cc1,i,-7%
Cc1ccc[n+](-c2nc([O-])sc2/C=N/Nc2ccc([N+](=O)[O-])cc2)c1,-5%,-1%
Cc1cc(C)c2c(CC(=O)N(Cc3ccc(Cl)cc3)Cc3ccco3)coc2c1,-25%,-8%
CCOc1ccc(OCC(=O)Nc2nccs2)cc1,-2%,-6%
O=C(Nc1ccc2c(c1)OCCO2)C(C1CC1)N1CCC(Cc2ccccc2)CC1 (configuration not stated),45%[activator],1%
Cc1ccc2[nH]c3c(NCc4ccco4)ncnc3c2c1,?,?
COc1ccc(/C=N/NS(=O)(=O)c2ccc(C)cc2)cc1OC(=O)c1ccc(C)cc1,/,-25%
CC1(C(=O)NS(=O)(=O)c2ccccc2)CCN1C(=O)Cc1ccccc1Cl (configuration not stated),i,-5%
Fc1ccc2c(c1)C1OCCCC1C(c1ccccc1)N2 (configuration not stated),-4%,-21%
CCOc1cc(C2C(C(=O)OC(C)C)=C(C)NC3=C2C(=O)CCC3)cc([N+](=O)[O-])c1O (configuration not stated),-7%,-5%
CC(=O)NC(Cc1c[nH]c2ccccc12)C(=O)O (configuration not stated),2%,7%
COc1ccc(C2CCCN2C(=O)c2cccs2)cc1 (configuration not stated),-22%,-14%
CCOc1ccc(-c2c(C(=O)N/N=C/C3CCCCC3)nnn2-c2nonc2N)cc1,-17%,-9%
CCOc1ccc(CCNC(=O)CCC(=O)N2CCOc3ccccc32)cc1OCC,i,-5%
COc1ccccc1-c1nnc(NC(=O)CCS(=O)(=O)c2ccc(F)cc2)o1,?,4.5µM*
O=C1CSC(c2ccccc2Br)N1c1ccc(Cl)cn1 (configuration not stated),-14%,2%
CC(C)c1ccc(S(=O)(=O)/N=C2\C=C(NS(=O)(=O)c3ccccc3)C(=O)c3ccccc32)cc1,?,20%
O=S(Cc1ccccc1)Cc1ccccc1,2%,12%
Cc1cc(C)n2c(-c3ccccc3Cl)nnc2n1,i,-12%

# In the list so far, 14 contain fluorine:
SMILES,Vaccinia mCherry,VACV Venus inh
CCOc1ccccc1OCCOc1cccc(C(F)(F)F)c1,/,-16%
Nc1cccc2c1C(=O)N(C(=O)/C=C/c1cccc(F)c1)C2=O,?,-7%
CCOc1ccc(C(c2c(O)cc(C)n(CCOC)c2=O)N2CCN(c3ccccc3F)CC2)cc1 (configuration not stated),-11%,-9%
O=C(Cn1c(-c2cccs2)cc2cc(F)ccc21)NCCCN1CCN(c2ccc(F)cc2)CC1,-2%,-14%
COc1ccc(NS(=O)(=O)c2ccc(N3CCOCC3)c(NC(=O)c3cccc(F)c3)c2)cc1,?,-23%
COc1ccc(N(CC(=O)N2CCN(c3ccc(F)cc3)CC2)S(=O)(=O)c2c(C)n[nH]c2C)cc1,-13%,-10%&-8%
Cc1cccc(NP(=O)(Oc2ccccc2F)Oc2ccccc2F)c1C,-11%,-13%
Cn1ccsc1=NC(=O)c1ccccc1OC(F)F,i,-2%
O=C(Nc1nc(-c2ccc(F)cc2)cs1)C1CCCO1 (configuration not stated),-7%,-12%
O=C1C2C3C=CC(CC3)C2C(=O)N1c1cccc(C(F)(F)F)c1 (configuration not stated),i,-10%
O=C(CC(c1cccs1)S(=O)(=O)c1ccccc1)c1ccc(F)cc1 (configuration not stated),-14%,-1%
Cc1ccc(-c2nnn(CC(=O)N(CC(=O)NCCC(C)C)c3ccc(F)cc3)n2)cc1,-10%[7.34 µM],-2%[7.34 µM]
Fc1ccc2c(c1)C1OCCCC1C(c1ccccc1)N2 (configuration not stated),-4%,-21%
COc1ccccc1-c1nnc(NC(=O)CCS(=O)(=O)c2ccc(F)cc2)o1,?,4.5µM*

# High-throughput results from PubChem.

# The order is random (roughly 0.88% active in at least one column).
